Bioassay records as filed in PubChem BioAssay.
SARS PLP yeast – qHTS of Yeast-based Assay for SARS-CoV PLP; S. cerevisiae expressing SARS-CoV PLpro, growth rescue; control for the full effect not named in the record; Potency, µM (doses to about 32.9 µM), for the others: at the highest dose activity, positive = growth rescue; actives 0.19% (n = 330,000); AID 485353, 2010; active means well fitted rising curve with a large enough effect; inconclusive means small, poorly fitted or top-dose-only effect; inactive means no such curve, though single readings can be large or run the other way; also: 0% is about no effect; nearly all actives have a fitted effect of over 55% in size; growth read by luminescence after 48 h
2A StopGo – High Throughput Screening for Foot and Mouth Disease Virus Antivirals | human cells with a luciferase reporter of 2A StopGo recoding; control for the full effect not named in the record | actives 1.2% (n = 410,000) | Potency, µM (doses to about 57.9 µM), without a hit: top-dose signal change, negative = less light | AID 1159524, 2015; active = well fitted falling curve with a large enough effect; inconclusive = small, poorly fitted or top-dose-only effect; inactive = no such curve, though single readings can be large or run the other way; tested in HEK293T cells; also: % is scaled to controls: 0 for no effect and ±100 for the full control effect; nearly all actives have a fitted effect of over 45% in size; luciferase light after 4 h
NS1 inh – qHTS Assay for Inhibitors of Influenza NS1 Protein Function; actives 0.4% (n = 270,000); AID 2326, 2010; S. cerevisiae slowed by influenza A NS1, growth recovery by OD600; Potency, µM (top dose mostly 46.1 µM), without a hit: top-dose activity, positive = more growth; active means well fitted rising curve with a large enough effect; inconclusive means small, poorly fitted or top-dose-only effect; inactive means no such curve, though single readings can be large or run the other way; also: nearly all actives have a fitted effect of over 50% in size
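OD600 was taken as the measure of yeast growth restored by compound in an NS1-expressing S. cerevisiae strain. Cells had been washed out of glucose medium and diluted 1:100 into galactose -URA medium, pH 6.0.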
RE007 growth inh – qHTS Assay for Inhibitors of the HIV-1 protein Vpr; Potency, µM (series often up to 92.2 µM), for inactives: top-dose activity change, negative = less growth; actives 0.21% (n = 360,000); S. pombe RE007 Vpr strain, BacTiter-Glo ATP luminescence, 24 h; control for the full effect not named in the record; AID 651644, 2012; active = well fitted falling curve with a large enough effect; inconclusive = small, poorly fitted or top-dose-only effect; inactive = no such curve, though single readings can be large or run the other way;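 also: % is scaled to controls: 0 for no effect and ±100 for the full control effect; nearly all actives have a fitted effect of over 50% in size; the assay follows cell death caused by Vpr and the record does not say whether a fall means rescue or toxicity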
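Fission yeast strain RE007, carrying one chromosomally integrated HIV-1 vpr copy, was seeded at OD 0.01 in PMG+AL medium with 23 nL pinned compound. After 24 h at 30 °C and 99% humidity, viability was read by BacTiter-Glo luminescence.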
MARV entry inh – qHTS for inhibitors of binding or entry into cells for Marburg Virus | Marburg virus pseudotyped entry inhibition, cell reporter; control for the full effect not named in the record; about a third of the inactives were read at about 46 µM | Potency, µM (titrated, usually from 37.8 µM), for the others: top-dose activity change, negative = inhibition, actives largely listed as inhibitors | actives 1.8% (n = 300,000); active = well fitted inhibition curve with a large enough effect; inconclusive = small, poorly fitted or top-dose-only effect, or effect the other way; inactive = flat fitted curve, though single readings scatter; tested in HEK293 cells; about a fifth of its hits are not listed in these tables; also: % is scaled to controls: 0 for no effect and ±100 for the full control effect; luciferase read-out
Lassa entry inh – qHTS for Inhibitors of binding or entry into cells for Lassa Virus; Lassa virus pseudotype entry inhibition, cell reporter; control for the full effect not named in the record; Potency, µM (highest dose often 37.9 µM), for the others: top-dose activity change, negative = inhibition, usual class: inhibitors; AID 540256, 2011; actives 1.2% (n = 300,000); active means well fitted inhibition curve with a large enough effect; inconclusive means small, poorly fitted or top-dose-only effect, or effect the other way; inactive means flat fitted curve, though single readings scatter; tested in HEK293 cells; also: % is scaled to controls: 0 for no effect and ±100 for the full control effect; nearly all actives have a fitted effect of over 50% in size; luciferase read-out
Cruzain noTriton – qHTS Assay for Promiscuous and Specific Inhibitors of Cruzain (without detergent) | actives 2.3% (n = 200,000) | purified cruzain, Z-FR-AMC fluorescence, no detergent | Potency, µM, inactives show max response, negative = inhibition, most hits filed as inhibitors;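 also: plate controls were enzyme without inhibitor for no effect and buffer without enzyme for full effect; nearly all actives have a fitted effect of over 40% in size; top concentration of the series not given in the record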
Target sequence (P25779 123-467 limits assumed): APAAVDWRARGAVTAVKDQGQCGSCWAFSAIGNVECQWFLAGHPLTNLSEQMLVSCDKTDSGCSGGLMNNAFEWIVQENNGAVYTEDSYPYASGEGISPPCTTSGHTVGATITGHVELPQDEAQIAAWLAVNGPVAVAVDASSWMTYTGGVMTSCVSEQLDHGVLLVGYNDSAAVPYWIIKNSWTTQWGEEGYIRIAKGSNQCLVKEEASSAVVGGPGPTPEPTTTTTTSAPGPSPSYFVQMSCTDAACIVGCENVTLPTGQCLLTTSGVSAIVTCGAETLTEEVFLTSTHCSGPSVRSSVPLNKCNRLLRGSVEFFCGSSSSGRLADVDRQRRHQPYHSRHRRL
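Purified cruzain at 1.5 nM, pre-incubated 15 min with compound at room temperature in 100 mM sodium acetate pH 5.5, 5 mM DTT, 0.00005% Triton X-100. Reaction started with 2 uM Z-FR-AMC; AMC fluorescence increase over 60 s gives rate.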
Cruzain Triton – qHTS Assay for Promiscuous and Specific Inhibitors of Cruzain (with detergent) | AID 1478, 2009 | purified cruzain, Z-FR-AMC fluorescence, 0.01% Triton | actives 0.43% (n = 200,000) | Potency, µM, inactives show max response, negative = inhibition, most hits filed as inhibitors;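 also: plate controls were neutral wells for no effect and buffer without enzyme for full effect; nearly all actives have a fitted effect of over 40% in size; top concentration of the series not given in the record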
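Detergent-containing arm of a paired screen for aggregation-based inhibition: 0.01% Triton X-100 present. Cruzain at 1.5 nM cleaved 2 uM Z-FR-AMC at pH 5.5 with 5 mM DTT; AMC fluorescence gain over 60 s measured activity.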
Numbers without * were called inactive; ? = inconclusive; / = not tested or not shown; & = joins results of further samples; [ ] = dose if it differs, or a comment. Unless noted, calls follow the shape of the dose curve; as a rule, active = well fitted curve in the direction sought with a large enough effect; inconclusive = small, poorly fitted or top-dose-only effect, or another doubt; inactive = no such curve, though single readings can be large; an effect the other way counts as inactive or inconclusive. Potency is read from the fitted curve at half-maximal effect. Hits appear at their usual frequency. Share with any hit: about 4.7%.

Preview, two compounds:
SMILES	SARS PLP yeast	2A StopGo	NS1 inh	RE007 growth inh	MARV entry inh	Lassa entry inh	Cruzain noTriton	Cruzain Triton
COC(=O)c1cc(OC)c(OC)cc1NC(=O)c1ccc(C)o1	20%	-14%	-2%	-6%	?	-18%	?	?
COc1ccc(S(=O)(=O)NCCSCc2ccco2)cc1	-3%	2%	?	-2%	-19%	-14%	-2%	-3.9%

Results, previewed entries included:
SMILES	SARS PLP yeast	2A StopGo	NS1 inh	RE007 growth inh	MARV entry inh	Lassa entry inh	Cruzain noTriton	Cruzain Triton
COC(=O)c1cc(OC)c(OC)cc1NC(=O)c1ccc(C)o1	20%	-14%	-2%	-6%	?	-18%	?	?
COc1ccc(S(=O)(=O)NCCSCc2ccco2)cc1	-3%	2%	?	-2%	-19%	-14%	-2%	-3.9%
CCC(=O)N1CCc2cc(S(=O)(=O)NC(C(=O)NC(C)c3ccccc3)C(C)C)ccc21 (centres undefined)	7%	6%	0%	-9%	1%	-10%	11%	-6.0%
Cc1cccc(C)c1OCc1cc(=O)n2ccsc2n1	/	-3%	/	/	-26%[46.1 µM]	?	8%	-9.8%
Cn1ccnc1Sc1nc2c(c(=O)n(C)c(=O)n2C)n1C	-9%	/	5%	0%	-3%	14%	-14%	2.2%
COC(=O)c1ccc(NC(=O)C(=O)NCCc2sc(-c3cccc(F)c3)nc2C)cc1	/	-2%	/	/	/	3%[46.1 µM]	-9%	-0.4%
Cc1c(Cl)c([N+](=O)[O-])nn1CC(=O)NC1CCCCC1	3%	3%	-3%	12%	5%	11%	-2%	-0.1%
COc1ccc(NC(=O)c2nc(SCc3ccc(F)cc3)ncc2Cl)cc1	/	-10%	/	/	2%[46.1 µM]	-1%[46.1 µM]	3%	-4.7%
COc1cc(/C=N/c2oc(C)c(C)c2C#N)cc(Br)c1O	-1%	11%	3%	14%	/	/	/	/
O=C(NC1CCCCC1)C(c1ccc(F)cc1)N(C(=O)c1csnn1)C1CC1 (centres undefined)	14%	0%	21%	4%	3%[46.1 µM]	-6%[46.1 µM]	/	/
O=C(Cc1csc(-c2ccccc2)n1)NCc1ccc(F)cc1	-28%	13%	-11%	-13%	-9%	-4%	14%	-4.1%
Cc1ccc(-n2nnnc2SCc2nnc(-c3ccccc3Br)o2)cc1	-6%	/	-85%	-24%	13%	-6%	-2%	-10%
Cc1nnc(SCc2ccc(C(=O)O)cc2)s1	-2%[6.58 µM]	14%	4%	15%	-14%	24%	-3%	4.0%
O=C(CCN1C(=O)c2ccccc2C1=O)Nc1nc2ccccc2s1	?	40%[activator]	-7%	2%	9%	1%	-10%	-7.3%
CCCN1C/C(=C/c2ccc3c(c2)OCO3)C(=O)/C(=C/c2ccc3c(c2)OCO3)C1	14µM*	18µM*	11%	4%	?	?	-14%	-8.0%
CCOC(=O)c1cc(-c2ccccc2)sc1N	14%	101%[activator]	-98%	-7%	?	9%	25µM*	-12%
CC(=O)Nc1ccc(NC(=O)Nc2cccc(C)c2C)cc1	1%	7%	/	-8%	24%[46.1 µM]	0%	/	/
Cc1ccc(C(=O)c2oc3ccc(Cl)cc3c2NC(=O)CN2CCN(C)CC2)cc1	0%	-16%	-6%	6%	/	/	/	/
Cn1nc(-c2ccc(C(=O)Nc3ccc(OC(F)(F)F)cc3)cc2)c2ccccc2c1=O	/	14µM*	/	/	/	-2%[46.1 µM]	-17%	0.2%
Cc1cc(C)cc(NS(=O)(=O)c2cc3[nH]c(=O)c(=O)[nH]c3cc2C)c1	3%	4%&-3%	1%	12%	/	13%[46.1 µM]	/	/
COc1cc(C(c2sc3nc(C)nn3c2O)N2CC(C)CC(C)C2)cc(OC)c1OC (centres undefined)	?	-12%	-118%	13%	/	/	15%	-5.2%
COc1cc2nc(CN3CCOCC3)n(CC(=O)N3CCCCCC3)c(=O)c2cc1OC	0%	-23%	-7%	-1%	11%[46.1 µM]	-26%	/	/
Cc1ccnc(NS(=O)(=O)c2cc(-c3cc(C)no3)ccc2C(C)C)c1	7%	56%[activator]	6%	4%	/	/	/	/
CC1CCC(C(C)C)C(OC(=O)CSc2n[nH]c(=O)[nH]c2=O)C1 (centres undefined)	-2%	2%	-7%	-1%	1%	-8%	-6%	-6.6%
Fc1ccccc1CNCc1ccc2c(c1)OCO2	-1%	0%	14%	-7%	/	/	/	/
Cc1ccc(O)c(NC(=O)C2CCCN2C(=O)OCc2ccccc2)c1 (centres undefined)	0%	21%	1%	-3%	20%[46.1 µM]	-6%[46.1 µM]	/	/
O=C(CSc1nc2ccccc2n1S(=O)(=O)c1ccccc1)N1CCCC1	-18%	-4%	1%	1%	-2%	18%	9%	0.9%
CC1(C)C2CCC1(CS(=O)(=O)NCCc1c[nH]c3ccccc13)C(=O)C2 (centres undefined)	0%	-1%	-1%	1%	-16%[46.1 µM]	0%	/	/
O=C(NNC(=O)c1ccc2ccccc2c1)c1cccc(F)c1	/	5%	/	-8%	14%[46.1 µM]	16%[46.1 µM]	/	/
NC(=O)CC(NC(=O)Cc1cccc2ccccc12)c1ccc(N2CCCCCCC2)c([N+](=O)[O-])c1 (centres undefined)	0%	-12%	1%	12%	/	/	/	/
Cc1cccc(Oc2nc(-c3cccc([N+](=O)[O-])c3)nc3ccccc23)c1C	-2%	14%	8%	-12%	-1%	-12%	-7%	-2.9%
COc1ccccc1C(CCN(Cc1ccccc1)C(C)=O)c1ccco1 (centres undefined)	-3%	-23%	6%	15%	?	-25%	/	/
Cc1ccccc1N(CC(=O)NCC1CCCO1)C(=O)CNS(=O)(=O)c1ccc(F)cc1 (centres undefined)	4%	-4%	-2%	8%	-5%[46.1 µM]	1%	/	/
COC(=O)c1ccccc1S(=O)(=O)Oc1ccc(-c2ccc(C(=O)O)cc2)cc1	-2%	30%	1%	-9%	-5%[46.1 µM]	/	/	/
COc1cc(C(C)=O)ccc1OCC(=O)c1cc(C)n(C2CC2)c1C	-4%	-22%	-64%	1%	?	3%	-14%	-1.2%
O=C(O/N=C1\C(=O)N(c2ccccc2)c2ccccc21)C1CC1	1%	-20%	/	5%	-7%[46.1 µM]	-10%	/	/
c1ccc(-n2c(-c3ccncc3)nnc2-c2ccco2)cc1	-2%	0%	8%	23%	-10%	3%	-5%	-2.7%
CNC(=O)c1ccccc1-c1ccccc1	-1%	-4%	?	14%	0%	2%	5%	5.7%
COc1ccc(/C(O)=C2/C(=O)C(=O)N(CCN3CCOCC3)C2c2cccnc2)cc1OC (centres undefined)	0%	13%	2%	15%	2%	13%	-19%	-18%
c1ccc(Oc2cccc(OCCCCSc3ncccn3)c2)cc1	-1%	14%	-5%	-6%	-1%	-12%	-8%	1.9%
Cc1ccc(N(CC(=O)NCC2CCCO2)C(=O)CCC(=O)Nc2nccs2)cc1C (centres undefined)	0%	0%	10%	-7%	1%[46.1 µM]	-7%[46.1 µM]	/	/
COc1ccc2c(c1OC)C(=O)N(c1nc(SC)n[nH]1)C2=O	-3%	-12%	-8%	-4%	10%	-1%	/	/
Cc1nc2ccccc2c(=O)n1NC(=O)Cc1ccc(Br)cc1	-11%	0%	-39%	-12%	-10%	?	4%	-3.1%
Cc1ccc(N=C(N(C)C)P(=O)(N(C)C)N(C)C)cc1	1%	-8%	/	195%	3%[46.1 µM]	8%[46.1 µM]	/	/
CC(C)[C@H](NC(=O)c1ccccc1)C(=O)OCC(=O)c1ccccc1F	-5%	43%[activator]	0%	-8%	-15%	-8%	/	/
O=P(Oc1ccc(-c2ccccc2)cc1)(N1CC1)N1CC1	/	34%[activator]	/	-19%	12%	17%	/	/
CCn1c(SCC(=O)Nc2ccc(C(=O)OC)cc2)nc2cccnc21	-34%	?	-1%	14%	-14%[46.1 µM]	5%	-4%	-3.7%
CC(=O)N/C(=C\c1ccccc1)C(=O)OCc1ccc(F)cc1	6%	-11%	17%	-1%	?	-23%[46.1 µM]	/	/
CCOc1ccc(-c2nnn(CC(=O)Nc3cc(OC)cc(OC)c3)n2)cc1OCC	4%	-10%	-1%	1%	?	13%	?	-2.0%
CCCC(C(=O)NCc1ccco1)N(C(=O)CNS(=O)(=O)c1ccccc1)c1ccc(OC)cc1 (centres undefined)	1%	6%	3%	-14%	?	-4%[46.1 µM]	/	/
CN(Cc1ccco1)C(=O)C1CCCN(c2ncnc3c2nc2n3CCCCC2)C1 (centres undefined)	-1%	-6%	-21%	1%	/	/	/	/
COc1ccc(C(=O)Nc2cc(C)c(NC(=O)c3ccccc3OC)cn2)cc1	-5%	8%	10%	-5%	?	?	/	/
COCCNC(=S)N/N=C(\C)c1ccc(Cl)c(Cl)c1Cl	-5%	-20%	/	6%	?	?	/	/
C1=CCC(/C=N/n2cnnc2)CC1 (centres undefined)	-5%	?	-4%	2%	19%	7%	-2%	-7.7%
COCC(=O)Nc1nnc(COc2ccc(Cl)cc2)s1	-20%	40%[activator]	4%	0%	15%	-9%	?	1.9%
C=CCn1c(SCC(=O)Nc2ccc(N(C)C)cc2)nnc1-c1cccc(C)c1	8%	-19%	-11%	1%	-4%	-29%	-6%	-1.8%
Cc1ccc2[nH]c(C(=O)Nc3ccccc3)cc2c1	/	14%	/	/	?	20%[46.1 µM]	?	-2.5%
CCN1CCCc2cc(CN(CCN3CCOCC3)C(=S)Nc3ccc(C)cc3)ccc21	0%	0%	/	-14%	?	-28%[46.1 µM]	/	/
Cc1ccc(NC(=O)Nc2nnc(Cc3ccc([N+](=O)[O-])cc3)s2)cc1C	12%	0%	0%	-7%	0%	1%	3%	2.1%
CCC(C(=O)OCC(=O)Nc1ccc(C)c(S(=O)(=O)N2CCOCC2)c1)c1ccccc1 (centres undefined)	-1%	0%	/	5%	-44%	10%	/	/
